# UCH37 DUB inh = inhibitors of human UCH37 deubiquitinase, primary screen, biochemical, Ub-AMC cleavage, fluorescence | purified proteasome/UCH37 | actives 0.33% (n = 330,000) | inhibition, % (concentration not given with the values);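 active = mean of two replicates above 20%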;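 note: 0% = compound-free wells with enzyme and 100% = wells lacking proteasome; stock transfer was 100 nL into about 20 µL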
# Target sequence (Q9Y5K5 whole entry, looked up): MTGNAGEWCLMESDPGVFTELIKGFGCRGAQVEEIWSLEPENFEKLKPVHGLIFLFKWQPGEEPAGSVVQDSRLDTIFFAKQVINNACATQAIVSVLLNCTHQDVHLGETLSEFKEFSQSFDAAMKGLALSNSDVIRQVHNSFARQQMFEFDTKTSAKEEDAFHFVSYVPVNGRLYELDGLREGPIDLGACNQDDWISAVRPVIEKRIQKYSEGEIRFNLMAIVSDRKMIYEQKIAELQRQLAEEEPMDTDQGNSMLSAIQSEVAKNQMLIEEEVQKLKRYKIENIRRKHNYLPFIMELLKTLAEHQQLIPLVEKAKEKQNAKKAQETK
#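 system = Proteasome-associated human UCH37 deubiquitinase | amount = 0.15 nM proteasome as dispensed | medium = pH 7.4 Tris-HCl (50 mM) with ovalbumin, ATP-MgCl2, DTT | incubation = 30 min preincubation with enzyme, 25 min cleavage at room temperature | detection = AMC fluorescence 355/460 nm | read-out basis = percent inhibition | controls = no-proteasome and no-compound wells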
# T cruzi inh = inhibitors of intracellular T. cruzi growth, primary screen, luminescence, NIH3T3 host cells; inhibition, % (test concentration not listed); AID 1885, 2009; actives 1.4% (n = 300,000); T. cruzi beta-gal in NIH3T3, 90 h;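 active = mean inhibition across valid replicates above about 55%, limit read from the data; inconclusive = mean below that limit but half or more replicates reach it; inactive = mean below it, under half of replicates reach it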;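 note: signal also drops with host cell toxicity which is not excluded here; 0% = plate median of DMSO wells and 100% = zero luminescence signal; higher percent means less beta-gal luminescence so fewer parasites; stock transfer was 50 nL into about 50 µL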
# LANA-H2B inh = blockers of LANA interaction with H2A/H2B – biochemical, FP readout, HTS, primary screen; AID 2629, 2010; inhibition, % (concentration not given with the values); cell-free LANA-H2A/H2B peptide, fluorescence polarization; actives 0.6% (n = 320,000); in the data active = inhibition mostly above about 10%, no sharp cut-off; inactive = mostly below about 6.7%;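 note: stock transfer was 7.5 nL into about 10 µL; 0% = median of vehicle wells and 100% = median of positive control wells; one replicate is shown; the record names a cut of 25% in any replicate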
# A1 inh = caspase 3/7 activation in MEF A1-2A-BIM cells, primary screen, A1 inhibitor project, cell-based, luminescence, HTS | Caspase-Glo 3/7 luminescence, 3 h; percent of clofoctol response, vehicle zero | actives 0.066% (n = 330,000) | caspase activation, % (test concentration not listed);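 active = over half of replicate activation scores above 10%, or exactly half above 10 with the replicate mean above 10; inconclusive = replicate mean below 10 yet half the replicates above 10; inactive = over half of replicates below 10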;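 note: wells of about 30 µL received 50 nL stock; many hits fall short of the cut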
# Calb FLC = C. albicans growth inhibition with fluconazole, primary screen, CaCi-2 strain, Alamar Blue fluorescence | C. albicans CaCi-2 (fluconazole-resistant clinical isolate) + fluconazole, 48 h | AID 1979, 2009 | actives 0.57% (n = 300,000) | growth inhibition, % (no concentration beside the values);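 active = most replicates above 75%; inconclusive = exactly half above 75%; inactive = most below 75%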;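 note: all wells also contain fluconazole at 8 µg/ml as a sub-toxic cotreatment; 0% = median of DMSO wells and 100% = median of geldanamycin control wells; wells of about 8 µL received 7.5 nL stock; the first replicate is given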
# Beta cell apopt = inhibitors of cytokine-induced beta cell apoptosis, primary screen, luminescence | protection from apoptosis, % (test concentration not listed) | INS-1E cytokine-induced death, ATP luminescence, 48 h; percent of positive-control rescue, neutral wells zero | actives 0.8% (n = 300,000);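 active = all replicates at 75% or more, or half of them and the mean; inconclusive = half reach 75% but not the mean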;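 note: 0% = cytokine-treated negative control wells and 100% = positive control rescue; higher means more ATP so stronger rescue from cytokine killing; wells of about 40 µL received 100 nL stock; the first replicate is given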
# RanGTP-Imp inh = inhibitors of RanGTP-importin-beta interaction, primary screen, biochemical, FRET, CFP-Ran, YFP-importin-beta, homogeneous | Ran GTPase (GTP-bound) - importin-beta complex | actives 1.1% (n = 300,000) | cell-free CFP-Ran/YFP-importin-beta FRET ratio | inhibition, % (concentration not given with the values) | AID 2216, 2009;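 active = most replicates above 15%; inconclusive = exactly half above 15%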;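 note: 0% = DMSO wells and 100% = Ran loaded with GDP instead of GTP; wells of about 40 µL received 100 nL stock; the first replicate is given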
# B2AR ag = beta2AR agonists driving receptor internalization, primary screen, cell-based, FAP fluorogen, flow cytometry. Beta-2 adrenergic receptor (Homo sapiens), P07550. actives 0.43% (n = 340,000). response, % (test concentration not listed). Am2.2-beta2AR cells; reference of the scale not given here;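 active = response above a set limit, near 3 SD of response in nonfluorescent compounds, cut at about 42% in these data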;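 note: stock transfer was 100 nL into about 11 µL; a reference agonist was the positive control; negative values mostly stem from fluorescent compounds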
# Target sequence (P07550 whole entry, looked up): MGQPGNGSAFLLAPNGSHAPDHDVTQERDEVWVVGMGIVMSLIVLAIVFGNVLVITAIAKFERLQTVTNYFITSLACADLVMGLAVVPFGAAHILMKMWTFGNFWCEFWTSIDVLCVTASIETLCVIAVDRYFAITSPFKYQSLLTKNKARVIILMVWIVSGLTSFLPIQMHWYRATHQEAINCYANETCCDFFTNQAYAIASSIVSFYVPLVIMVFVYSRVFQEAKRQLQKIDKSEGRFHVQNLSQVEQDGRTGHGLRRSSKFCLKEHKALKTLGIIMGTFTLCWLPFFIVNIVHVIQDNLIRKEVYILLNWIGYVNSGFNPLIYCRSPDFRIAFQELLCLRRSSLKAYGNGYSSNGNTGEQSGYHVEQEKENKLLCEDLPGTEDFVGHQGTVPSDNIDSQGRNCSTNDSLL
# An asterisk follows results filed as active; ? = inconclusive; . = not tested or not shown. Not a hit list, and some 4.3% of all compounds hit somewhere here.
1: COc1ccccc1N1CCN(CC(=O)NCCc2ccc(S(N)(=O)=O)cc2)CC1
2: O=C(Cc1ccc(Br)cc1)N1CCN(C(=O)c2ccccc2)CC1
3: COc1ccc(C2CC(c3ccccc3)=NN2C(=O)COC(=O)c2cccc(N)c2)cc1 (stereo not given)
4: COc1ccc(-c2csc(Nc3ncccn3)n2)cc1C
5: N#Cc1nc(-c2cccs2)oc1NCc1ccc2c(c1)OCO2
6: CC1=C(C(=O)Nc2cccnc2)C(c2ccccn2)n2nnnc2N1 (stereo not given)
7: Cc1cccc(Sc2ccc([N+](=O)[O-])cn2)c1
8: COc1ccc(Cc2nnc(NC(=O)c3ccc(F)cc3)s2)cc1OC

screen / no.	1	2	3	4	5	6	7	8
RanGTP-Imp inh	-1.2	.	.	-0.7	3.0	4.4	3.5	-4.7
UCH37 DUB inh	2.9	0.0	-36	3.6	.	0.5	0.6	6.5
Beta cell apopt	.	-5	2	-10	-4	-5	-2	7
A1 inh	1.7	0.2	0.6	-2.5	0.0	0.4	-0.1	1.2
T cruzi inh	-1	.	.	-10	.	6	3	-6
LANA-H2B inh	-2.0	-3.3	-6.2	5.2	3.1	2.5	-2.8	2.9
B2AR ag	0	7	-3	-1	-1	-2	5	0
Calb FLC	20	.	.	-1	-7	30	-14	6

9: N#Cc1nc(Cc2cccc3ccccc23)oc1NCc1ccc(F)cc1
10: CCN(CC)CC(=O)Nc1sc2c(c1C(=O)c1ccccc1OC)CCC2
11: CCOC(=O)C1(CCOc2ccccc2)CCN(Cc2ccncc2)CC1
12: Cc1occc1-c1nnc(SCC(=O)N(C)C)o1
13: Cc1ccc(C)c(Cn2nnc3c(=O)[nH]c(C4CCN(S(=O)(=O)c5ccc(S(=O)(=O)NC6CC6)cc5)CC4)nc32)c1
14: Cc1ccc(NC(=O)Cn2nnc(C(=O)NCc3cccs3)c2N)c(C)c1
15: O=[N+]([O-])c1ccc(O)c(C(C#Cc2ccccc2)N2CCOCC2)c1 (stereo not given)
16: O=C1C=C(c2ccc(C(=O)O)c(Cl)c2)C[C@@H](c2ccc3c(c2)OCO3)C1

screen / no.	9	10	11	12	13	14	15	16
RanGTP-Imp inh	?	?	-0.9	-0.8	4.7	2.9	7.2	.
UCH37 DUB inh	-1.7	3.6	2.5	0.6	3.9	2.2	4.2	4.8
Beta cell apopt	0	.	6	4	.	.	-1	0
A1 inh	0.0	-0.1	-0.4	0.3	-2.2	0.4	0.0	1.5
T cruzi inh	13	17	33	-6	8	-15	4	.
LANA-H2B inh	1.5	1.2	-2.3	-0.9	0.5	-5.8	1.1	4.9
B2AR ag	1	2	0	-1	10	5	1	-1
Calb FLC	15	-29	1	-18	15	12	33	.

17: CCN(CC)CCCNC(=O)C1CCCN(c2nnc(N3CCCC3=O)s2)C1 (stereo not given)
18: COc1ccc(-c2sc3ccc(-c4ccc5c(c4)OCO5)cc3c2-c2ccc(OC)nc2)cc1
19: COC(=O)Cn1c2[n+](c3ccccc31)CC(O)CS2 (stereo not given)
20: CCOC(=O)CNS(=O)(=O)Cc1ccccc1
21: COc1ccc(C)cc1NC(=O)CN1CCN(CC(=O)Nc2ccccc2F)CC1
22: COc1ccc(C[C@H]2CN3C(=NC[C@@H]3Cc3ccccc3)N2CCNC(=O)CCC2CCCCC2)cc1
23: COc1ccccc1NC(=O)CN1CCCCCC1
24: COC(=O)Cn1c(=NC(=O)c2cccc(OC)c2)sc2cc(OC)ccc21

screen / no.	17	18	19	20	21	22	23	24
RanGTP-Imp inh	-4.5	.	2.2	.	-0.5	0.9	-2.5	-3.3
UCH37 DUB inh	2.1	2.6	-0.1	-4.2	7.1	.	0.8	-293
Beta cell apopt	1	19	-1	-1	12	101*	1	-4
A1 inh	-0.2	-0.5	1.3	0.6	0.2	-1.4	-0.5	1.2
T cruzi inh	-4	.	-9	.	-1	24	-4	26
LANA-H2B inh	0.6	1.2	-0.8	3.0	-6.6	-1.4	-1.8	1.1
B2AR ag	5	-3	1	2	7	28	3	-1
Calb FLC	-42	.	0	.	-4	56	-7	-3

25: O=c1[nH]c2cc3c(cc2cc1CN(Cc1nnnn1C1CCCC1)C1CCCC1)OCCO3
26: Cc1oc2ccc(OCc3cccc(Cl)c3)cc2c1C(=O)O
27: COc1ccc(S(=O)(=O)N2CCCCCC2)cc1C(=O)NCCc1ccccc1
28: COc1cc(OC)c(-n2cc(-c3ccc(OC)c(OC)c3)[nH]c2=S)cc1Cl
29: CN(C)CCOC1c2ccccc2CSc2ccccc21 (stereo not given)
30: Cc1csc(NC(=O)CN2C(=O)C3CC=CCC3C2=O)n1 (stereo not given)
31: O=C(C1CCCN(S(=O)(=O)c2cccc3nonc23)C1)N1CCN(c2ccccc2Cl)CC1 (stereo not given)
32: COc1ccc(-c2nnc(SCC(=O)c3ccc[nH]3)o2)cc1

screen / no.	25	26	27	28	29	30	31	32
RanGTP-Imp inh	-13	-2.2	.	0.2	5.5	7.6	2.4	3.3
UCH37 DUB inh	-36	1.6	-2.8	-0.5	6.1	0.7	3.1	2.3
Beta cell apopt	-5	4	6	0	.	-3	8	0
A1 inh	-0.8	-6.0	-0.4	0.1	1.3	0.7	-0.4	-0.1
T cruzi inh	-14	-1	.	3	6	-26	35	0
LANA-H2B inh	3.1	-0.7	-3.1	-1.0	-12	0.5	.	0.6
B2AR ag	-3	5	-5	6	-9	-9	4	-6
Calb FLC	12	38	.	44	8	4	16	-11

# By substructure: the compounds so far with a cyano group (two)
5: N#Cc1nc(-c2cccs2)oc1NCc1ccc2c(c1)OCO2
9: N#Cc1nc(Cc2cccc3ccccc23)oc1NCc1ccc(F)cc1

screen / no.	5	9
RanGTP-Imp inh	3.0	?
UCH37 DUB inh	.	-1.7
Beta cell apopt	-4	0
A1 inh	0.0	0.0
T cruzi inh	.	13
LANA-H2B inh	3.1	1.5
B2AR ag	-1	1
Calb FLC	-7	15

# Given tab-delimited: part of the list above.
item	compound	RanGTP-Imp inh	UCH37 DUB inh	Beta cell apopt	A1 inh	T cruzi inh	LANA-H2B inh	B2AR ag	Calb FLC
22	COc1ccc(C[C@H]2CN3C(=NC[C@@H]3Cc3ccccc3)N2CCNC(=O)CCC2CCCCC2)cc1	0.9	.	101*	-1.4	24	-1.4	28	56
23	COc1ccccc1NC(=O)CN1CCCCCC1	-2.5	0.8	1	-0.5	-4	-1.8	3	-7
24	COC(=O)Cn1c(=NC(=O)c2cccc(OC)c2)sc2cc(OC)ccc21	-3.3	-293	-4	1.2	26	1.1	-1	-3
25	O=c1[nH]c2cc3c(cc2cc1CN(Cc1nnnn1C1CCCC1)C1CCCC1)OCCO3	-13	-36	-5	-0.8	-14	3.1	-3	12
26	Cc1oc2ccc(OCc3cccc(Cl)c3)cc2c1C(=O)O	-2.2	1.6	4	-6.0	-1	-0.7	5	38
27	COc1ccc(S(=O)(=O)N2CCCCCC2)cc1C(=O)NCCc1ccccc1	.	-2.8	6	-0.4	.	-3.1	-5	.
28	COc1cc(OC)c(-n2cc(-c3ccc(OC)c(OC)c3)[nH]c2=S)cc1Cl	0.2	-0.5	0	0.1	3	-1.0	6	44
29	CN(C)CCOC1c2ccccc2CSc2ccccc21 (stereo not given)	5.5	6.1	.	1.3	6	-12	-9	8
30	Cc1csc(NC(=O)CN2C(=O)C3CC=CCC3C2=O)n1 (stereo not given)	7.6	0.7	-3	0.7	-26	0.5	-9	4
31	O=C(C1CCCN(S(=O)(=O)c2cccc3nonc23)C1)N1CCN(c2ccccc2Cl)CC1 (stereo not given)	2.4	3.1	8	-0.4	35	.	4	16
32	COc1ccc(-c2nnc(SCC(=O)c3ccc[nH]3)o2)cc1	3.3	2.3	0	-0.1	0	0.6	-6	-11

# Assay outcomes as filed in PubChem BioAssay.
